# From PubChem
# Beta apoptosis: inhibitors of cytokine-induced beta cell apoptosis, primary screen, luminescence | INS-1E cytokine-induced death, ATP luminescence, 48 h; percent of positive-control rescue, neutral wells zero | protection from apoptosis, % (concentration not given with the values) | 300,000 compounds, 0.8% hits;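 active = all replicates at 75% or more, or half of them and the mean; inconclusive = half reach 75% but not the mean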;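 note: 0% = cytokine-treated negative control wells and 100% = positive control rescue; higher means more ATP so stronger rescue from cytokine killing; wells of about 40 µL received 100 nL stock; the first replicate is given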
# ALR H2O2 inh: inhibitors of human ALR sulfhydryl oxidase, primary screen, biochemical, H2O2 detection, HRP-luminol luminescence, single point; FAD-linked sulfhydryl oxidase ALR (Homo sapiens), P55789; inhibition, % (no concentration beside the values); purified ALR, DTT oxidation; 290,000 compounds, 3.8% hits;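 active = mean and each replicate at 75% or more; inconclusive = only one of the two met; inactive = neither met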;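 note: stock transfer was 7.5 nL into about 7.5 µL; 0% = neutral wells and 100% = wells with inactivated enzyme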
# RanGTP-Imp inh: inhibitors of RanGTP-importin-beta interaction, primary screen, biochemical, FRET, CFP-Ran, YFP-importin-beta, homogeneous; Ran GTPase (GTP-bound) - importin-beta complex; cell-free CFP-Ran/YFP-importin-beta FRET ratio; inhibition, % (no concentration beside the values); 300,000 compounds, 1.1% hits;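 active = most replicates above 15%; inconclusive = exactly half above 15%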;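 note: 0% = DMSO wells and 100% = Ran loaded with GDP instead of GTP; wells of about 40 µL received 100 nL stock; the first replicate is given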
# T cruzi repl: inhibitors of intracellular T. cruzi growth, primary screen, luminescence, NIH3T3 host cells; T. cruzi beta-gal in NIH3T3, 90 h; inhibition, % (concentration not given with the values); 300,000 compounds, 1.4% hits;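 active = mean inhibition across valid replicates above about 55%, limit read from the data; inconclusive = mean below that limit but half or more replicates reach it; inactive = mean below it, under half of replicates reach it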;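 note: signal also drops with host cell toxicity which is not excluded here; 0% = plate median of DMSO wells and 100% = zero luminescence signal; higher percent means less beta-gal luminescence so fewer parasites; stock transfer was 50 nL into about 50 µL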
# FGF22 binding: binders of human FGF22 protein, primary screen, FGF22 synaptogenesis inhibitor project, biophysical, thermal shift, single point; calls only at 9.99 µM; AID 651658, 2012; 340,000 compounds, 1.5% hits; recombinant FGF22 thermal shift, SYPRO orange fluorescence; percent of sucrose octasulfate shift, DMSO zero; Fibroblast growth factor 22 (Homo sapiens), Q9HCT0;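 active = melting point raised past a set limit in the mean and every replicate; inconclusive = no clear call; three in four hits are not shown here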
# Target sequence (Q9HCT0 whole entry, looked up): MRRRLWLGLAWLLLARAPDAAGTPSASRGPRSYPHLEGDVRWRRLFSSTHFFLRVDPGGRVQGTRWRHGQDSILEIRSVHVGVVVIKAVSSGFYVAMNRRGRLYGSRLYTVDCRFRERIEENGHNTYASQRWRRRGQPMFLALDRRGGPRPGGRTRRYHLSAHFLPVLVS
# Calb FLC: C. albicans growth inhibition with fluconazole, primary screen, CaCi-2 strain, Alamar Blue fluorescence | C. albicans CaCi-2 (fluconazole-resistant clinical isolate) + fluconazole, 48 h | growth inhibition, % (no concentration beside the values) | 300,000 compounds, 0.57% hits | AID 1979, 2009;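 active = most replicates above 75%; inconclusive = exactly half above 75%; inactive = most below 75%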;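 note: all wells also contain fluconazole at 8 µg/ml as a sub-toxic cotreatment; 0% = median of DMSO wells and 100% = median of geldanamycin control wells; wells of about 8 µL received 7.5 nL stock; the first replicate is given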
# AF4-AF9 inh: inhibitors of AF4 peptide binding to AF9, primary screen, biochemical, AlphaScreen, biotin-AF4 peptide, FLAG-AF9, single point | 350,000 compounds, 0.47% hits | Protein AF-9 (Homo sapiens), P42568 | AID 651704, 2012 | inhibition, % at 10 µM;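 active = every replicate reaching a set inhibition limit, whatever the replicate mean, cut at about 25% in these data; inconclusive = mean inhibition reaches that limit but some replicates miss it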;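 note: 0% = plate neutral control median and 100% = total signal loss; the record names both 10 and 1 µM as test concentration; the first replicate is given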
# Target sequence (P42568 whole entry, looked up): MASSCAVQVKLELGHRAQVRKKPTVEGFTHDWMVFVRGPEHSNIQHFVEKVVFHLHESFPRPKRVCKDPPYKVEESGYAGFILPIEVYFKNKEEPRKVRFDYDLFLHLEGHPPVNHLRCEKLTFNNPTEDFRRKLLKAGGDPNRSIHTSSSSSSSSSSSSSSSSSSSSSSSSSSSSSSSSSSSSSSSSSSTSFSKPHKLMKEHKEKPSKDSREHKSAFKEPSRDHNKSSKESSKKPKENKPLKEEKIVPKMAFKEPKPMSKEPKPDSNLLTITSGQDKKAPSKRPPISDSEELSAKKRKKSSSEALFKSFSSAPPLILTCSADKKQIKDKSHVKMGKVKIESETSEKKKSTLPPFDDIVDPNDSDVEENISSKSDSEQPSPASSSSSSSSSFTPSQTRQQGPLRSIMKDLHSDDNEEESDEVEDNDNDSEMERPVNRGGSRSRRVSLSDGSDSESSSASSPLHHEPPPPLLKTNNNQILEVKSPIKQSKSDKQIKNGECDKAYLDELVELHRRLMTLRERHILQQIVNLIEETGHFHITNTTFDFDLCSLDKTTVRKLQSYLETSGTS
# rRNA inh HTS: reduced GFP signal of wild-type E. coli, primary screen, bacterial rRNA inhibitor project, GFP/RFP fluorescence, OD600, single point | GFP signal change (wild-type ribosome), % (no concentration beside the values) | AID 720706, 2013 | E. coli WT GFP vs humanized-ribosome RFP mutants, 24 h; active compounds read low; DMSO median 0, no signal -100 | 350,000 compounds, 1.6% hits;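 active = significant combined selectivity score with lowered wild-type GFP, culture density cut under 30%, mutant RFP and density less affected; inactive = any of these conditions unmet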; note: one replicate is shown; some compounds called inactive have numbers as strong as hits
# rRNA inh HTS OD600: further read-out of rRNA inh HTS, marked with its call; OD600 change, %; measured here: OD600 growth;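 optical density of the mix in the first replicate; 0 = DMSO median and -100 = no signal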
# rRNA inh HTS RFP: second read-out of rRNA inh HTS, no call of its own (marks repeat the call); RFP signal change, %; measured here: RFP humanized mutant strains;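 first replicate; 0 = DMSO median and -100 = no signal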
# * marks the source's active call; other numbers are inactive results; i = inactive; ? = inconclusive; . = not tested or not shown. This is a subset; the hit share may differ from the screen's.
entry	SMILES	Beta apoptosis	ALR H2O2 inh	RanGTP-Imp inh	T cruzi repl	FGF22 binding
1	COc1ccc(N=C2NC(=O)/C(=C/c3ccc(O)c(OC)c3)S2)cc1	36	25	-2.2	-10	i
2	c1cc(C2CCCCC2)ccc1Oc1nc(N2CCOCC2)nc(N2CCOCC2)n1	-2	-2	3.6	-4	.
3	Cc1nc(SCC(=O)NCc2ccc3c(c2)OCO3)c(C#N)c2c1CCCC2	1	-4	3.0	16	.
4	OC(c1cccs1)c1nccc2ccccc12 (centres undefined)	.	-32	-3.2	-24	.
5	O=[N+]([O-])c1ccc(F)cc1OCc1cccc(S(=O)(=O)N2CCOCC2)c1	.	-9	?	5	i
6	COc1ccc(NC(=O)COC(=O)C2CC3C=CC2C3)cc1 (centres undefined)	-18	5	-2.1	7	i
7	O=C(N/N=C/C(Br)=C/c1ccccc1)C1CC1	1	-7	-2.4	-9	i
8	CC(C)CCNC(=O)COC(=O)c1ccc(Br)o1	-6	-6	3.8	2	.

entry	Calb FLC	AF4-AF9 inh	rRNA inh HTS	rRNA inh HTS OD600	rRNA inh HTS RFP
1	50	7.0	-5	-13	-6.3
2	-8	.	.	.	.
3	-31	.	.	.	.
4	2	.	.	.	.
5	13	1.3	-9	-16	0.3
6	-9	0.7	13	0	3.4
7	-18	2.9	-19	-19	-7.6
8	-1	.	5	8	1.9

# Next part
entry	SMILES	Beta apoptosis	ALR H2O2 inh	RanGTP-Imp inh	T cruzi repl	FGF22 binding
9	Cc1cc(NC(=O)Cn2c(=O)c3c(ncn3CCC(C)C)n(Cc3ccccc3)c2=O)no1	-4	-5	?	30	.
10	CCN(CC(=O)N1CCCC1)S(=O)(=O)c1ccc(OC)cc1	.	2	2.5	-2	i
11	CC1CC(C)CN(C(=O)C(NS(=O)(=O)c2ccc3c(c2)oc(=O)n3C)C(C)C)C1 (centres undefined)	-5	-31	-1.2	2	i
12	CCOC(=O)CCCNC(=O)c1cncc(O)c1	-9	-4	4.4	1	.
13	NC(=O)c1ccc(NC(=O)CNC(c2ccccc2)c2ccccc2)cc1	1	.	0.3	0	i
14	CC(C)(C)c1nc(N2CCN(C(=O)c3ccco3)CC2)c2nnn(Cc3ccccc3)c2n1	-8	-1	-1.4	26	.
15	C/C(=N/NC(=O)c1cc(C(C)C)[nH]n1)c1cccs1	5	-13	-1.2	-5	.
16	CSc1nc2ccccc2n1CC(=O)Nc1ccc(C)c(C)c1	-3	-5	2.9	-21	i

entry	Calb FLC	AF4-AF9 inh	rRNA inh HTS	rRNA inh HTS OD600	rRNA inh HTS RFP
9	2	.	.	.	.
10	-1	-8.7	20	13	0.5
11	-39	11	-2	-1	-3.3
12	?	.	.	.	.
13	1	-1.2	-8	-5	-1.6
14	1	.	.	.	.
15	-4	.	.	.	.
16	-15	-0.2	-13	-9	-3.7

# New compounds follow.
entry	SMILES	Beta apoptosis	ALR H2O2 inh	RanGTP-Imp inh	T cruzi repl	FGF22 binding
17	C#CCOCCOCCOCCNc1nc(N2CCN(C(=O)[C@H]([C@@H](C)CC)n3cc([C@@H](N)Cc4ccc(O)cc4)nn3)CC2)nc(N2CCN(C(=O)[C@H]([C@@H](C)CC)n3cc([C@@H](N)Cc4ccc(O)cc4)nn3)CC2)n1	1	-1	-0.6	-7	i
18	Cc1nc2ccc(NS(=O)(=O)c3ccc(F)c(C)c3)cc2[nH]1	48	-36	-0.4	-12	i
19	Nc1c(Cl)cc(-c2csc(N3CCCC3c3nc4cc(Cl)c(Cl)cc4n3CCCO)n2)cc1Cl (centres undefined)	-6	-7	-1.4	21	i
20	O=c1c(Cl)c(N2CCN(c3ccccc3)CC2)cnn1C12CC3CC(CC(C3)C1)C2	1	86*	7.7	9	.
21	Cc1ccc2cc3c(N)c(C(=O)N4CC(=O)Nc5ccccc54)sc3nc2c1	39	20	-40	-17	.
22	COc1cccc(CNc2ccc(S(N)(=O)=O)cc2)c1OCc1ccccc1F	2	0	1.3	3	i
23	Cc1cccc(C(=O)NC2CCN(S(=O)(=O)c3ccccc3)CC2)c1	-9	-3	-0.8	5	i
24	O=C(CN1c2cccc3cccc(c23)S1(=O)=O)Nc1ccc(S(=O)(=O)N2CCOCC2)cc1	6	-26	1.4	14	.

entry	Calb FLC	AF4-AF9 inh	rRNA inh HTS	rRNA inh HTS OD600	rRNA inh HTS RFP
17	5	14	-12	-20	24
18	-6	-4.6	-14	-11	-3.3
19	-7	0.2	0	0	1.5
20	4	.	.	.	.
21	5	.	.	.	.
22	-2	5.4	-54	-76	-23
23	7	-1.7	19	19	2.6
24	-3	.	.	.	.

# Next section:
entry	SMILES	Beta apoptosis	ALR H2O2 inh	RanGTP-Imp inh	T cruzi repl	FGF22 binding
25	O=C(c1ccccc1)c1ccc(C(=O)N2CCN(c3ccccc3)CC2)cc1	-1	-1	?	-7	i
26	COc1cc(OC)c(-c2nc3c[n+](CC(=O)c4ccccc4)ccc3n2C)cc1OC	1	3	1.7	3	.
27	O=C1C=C(/C=C/C2C=CC=CC2)C[C@@H](c2ccc(Cl)cc2)C1 (some centres undefined)	-4	-2	.	.	i
28	COc1ccc(Cc2nnc(SCC(=O)N(c3ccccc3)C(C)C)n(N)c2=O)cc1	-6	-5	-2.4	6	i

entry	Calb FLC	AF4-AF9 inh	rRNA inh HTS	rRNA inh HTS OD600	rRNA inh HTS RFP
25	-19	-1.7	-15	-21	-3.1
26	-11	.	.	.	.
27	.	18	-19	-28	-9.8
28	-15	?	-4	-4	0.0
